RanGTP-Imp inh – inhibitors of RanGTP-importin-beta interaction, primary screen, biochemical, FRET, CFP-Ran, YFP-importin-beta, homogeneous; inhibition, % (concentration not given with the values); actives 1.1% (n = 300,000); cell-free CFP-Ran/YFP-importin-beta FRET ratio;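 active = most replicates above 15%; inconclusive = exactly half above 15%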;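 note: 0% = DMSO wells and 100% = Ran loaded with GDP instead of GTP; wells of about 40 µL received 100 nL stock; the first replicate is given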
MLL AF4-AF9 inh – inhibitors of human MLL-AF4/AF9 interaction. inhibition, % at 10 µM. AID 651704. actives 0.47% (n = 350,000). AlphaScreen, biotin-AF4 peptide binding to FLAG-AF9;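 active = every replicate reaching a set inhibition limit, whatever the replicate mean, cut at about 25% in these data; inconclusive = mean inhibition reaches that limit but some replicates miss it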;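 note: 0% = plate neutral control median and 100% = total signal loss; the record names both 10 and 1 µM as test concentration; the first replicate is given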
Target sequence (P42568 whole entry, looked up): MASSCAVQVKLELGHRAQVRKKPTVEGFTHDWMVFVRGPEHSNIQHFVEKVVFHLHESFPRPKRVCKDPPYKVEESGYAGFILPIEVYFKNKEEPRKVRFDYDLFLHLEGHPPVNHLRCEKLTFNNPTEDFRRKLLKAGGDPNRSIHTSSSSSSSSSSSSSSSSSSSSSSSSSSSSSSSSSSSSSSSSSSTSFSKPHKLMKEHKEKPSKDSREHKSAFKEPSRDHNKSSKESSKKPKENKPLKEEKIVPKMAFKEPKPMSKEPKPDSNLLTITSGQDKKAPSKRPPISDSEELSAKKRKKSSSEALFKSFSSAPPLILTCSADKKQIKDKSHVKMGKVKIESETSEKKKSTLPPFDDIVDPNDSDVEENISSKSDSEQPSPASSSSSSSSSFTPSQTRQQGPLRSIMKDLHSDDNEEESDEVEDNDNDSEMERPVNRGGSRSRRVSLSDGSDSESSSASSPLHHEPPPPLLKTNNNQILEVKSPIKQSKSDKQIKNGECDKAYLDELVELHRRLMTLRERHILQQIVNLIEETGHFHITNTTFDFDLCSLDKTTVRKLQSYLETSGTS
T cruzi repl – blocks replication of Trypanosoma cruzi; T. cruzi beta-gal in NIH3T3, luminescence, 90 h; inhibition, % (test concentration not listed); actives 1.4% (n = 300,000); AID 1885;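 active = mean inhibition across valid replicates above about 55%, limit read from the data; inconclusive = mean below that limit but half or more replicates reach it; inactive = mean below it, under half of replicates reach it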;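 note: signal also drops with host cell toxicity which is not excluded here; 0% = plate median of DMSO wells and 100% = zero luminescence signal; higher percent means less beta-gal luminescence so fewer parasites; stock transfer was 50 nL into about 50 µL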
Vif TR-FRET – HIV-1 Vif–A3G interaction blockers – biochemical, TR-FRET, GST-Vif 1-94, biotin-A3G peptide, dose response retest, primary screen (AID 1117319). actives 0.57% (n = 260,000). TR-FRET GST-Vif / biotin-A3G peptide binding; higher % means a stronger effect; test concentration not given here; strong numbers were not always called active. inhibition, %, or IC50 in µM where a hit was titrated;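 active = above the screen mean plus three standard deviations and confirmed in dose response; inconclusive = results disagree or hit not tested in dose response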;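 note: Vif residues 1-94 fused to GST binding biotinylated APOBEC3G peptide 110-148; 0% = full assay without inhibitor and 100% = GST in place of GST-Vif; retest series ran down from 100 µM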
Ecoli rRNA inh – selective bacterial rRNA inhibition in E. coli | GFP signal change (wild-type ribosome), % (no concentration beside the values) | actives 1.6% (n = 350,000) | E. coli WT GFP vs humanized-ribosome RFP mutants, fluorescence, 24 h; stronger effect = lower value; DMSO median 0, no signal -100 | AID 720706;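 active = significant combined selectivity score with lowered wild-type GFP, culture density cut under 30%, mutant RFP and density less affected; inactive = any of these conditions unmet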; note: one replicate is shown; some compounds called inactive have numbers as strong as hits
Bfl-1 A1 inh – inhibitors of the anti-apoptotic protein A1, read as caspase activation. MEF A1-2A-BIM cells, Caspase-Glo 3/7 luminescence, 3 h; percent of clofoctol response, vehicle zero. caspase activation, % (no concentration beside the values). actives 0.066% (n = 330,000);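 active = over half of replicate activation scores above 10%, or exactly half above 10 with the replicate mean above 10; inconclusive = replicate mean below 10 yet half the replicates above 10; inactive = over half of replicates below 10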;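 note: wells of about 30 µL received 50 nL stock; many hits fall short of the cut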
Beta cell apopt – beta cell apoptosis inhibition. protection from apoptosis, % (concentration not given with the values). actives 0.8% (n = 300,000). INS-1E cytokine-induced death, ATP luminescence, 48 h; percent of positive-control rescue, neutral wells zero;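 active = all replicates at 75% or more, or half of them and the mean; inconclusive = half reach 75% but not the mean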;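 note: 0% = cytokine-treated negative control wells and 100% = positive control rescue; higher means more ATP so stronger rescue from cytokine killing; wells of about 40 µL received 100 nL stock; the first replicate is given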
Calb FLC – affects C. albicans growth with fluconazole | C. albicans CaCi-2 (fluconazole-resistant clinical isolate) + fluconazole, Alamar Blue growth, 48 h | growth inhibition, % (concentration not given with the values) | actives 0.57% (n = 300,000) | AID 1979;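 active = most replicates above 75%; inconclusive = exactly half above 75%; inactive = most below 75%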;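 note: all wells also contain fluconazole at 8 µg/ml as a sub-toxic cotreatment; 0% = median of DMSO wells and 100% = median of geldanamycin control wells; wells of about 8 µL received 7.5 nL stock; the first replicate is given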
Ecoli rRNA inh OD600 – also measured in Ecoli rRNA inh; calls as there; OD600 change, %; measured here: OD600 growth;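 optical density of the mix in the first replicate; 0 = DMSO median and -100 = no signal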
Ecoli rRNA inh RFP – recorded beside Ecoli rRNA inh, whose call it bears; RFP signal change, %; measured here: RFP humanized mutant strains;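 first replicate; 0 = DMSO median and -100 = no signal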
Active calls of the source: *; ? = inconclusive; . = not tested or not shown. An excerpt. The share of hits here may be higher or lower than overall.

no. | smiles | RanGTP-Imp inh | MLL AF4-AF9 inh | T cruzi repl | Vif TR-FRET | Ecoli rRNA inh | Ecoli rRNA inh OD600 | Ecoli rRNA inh RFP | Bfl-1 A1 inh | Beta cell apopt | Calb FLC
1 | CC(C)NC(=O)C(c1ccc(F)cc1)N(C(=O)CCC(=O)Nc1ccccn1)C1CCCC1 (stereo unspecified) | 1.3 | -4.3 | 8 | . | 5 | 14 | 0.6 | 0.2 | -8 | -2
2 | CN(CCn1ccnc1)Cc1cn(Cc2ccccc2)nc1-c1ccc2c(c1)OCO2 | -0.8 | 14 | 15 | -4% | 6 | 0 | 1.9 | -0.7 | -1 | -7
3 | Cc1noc(C)c1C(=O)NCCc1ccc(S(N)(=O)=O)cc1 | ? | -0.9 | 2 | -4% | 4 | 2 | -0.5 | 1.0 | 0 | -1
4 | COc1ccc(NC(=O)c2ccc(NC(=O)C(C)C)cc2)c([N+](=O)[O-])c1 | 2.6 | 1.4 | 2 | -4% | 7 | 7 | -3.9 | -0.5 | 1 | 5
5 | O=C(NC1CCSc2ccccc21)c1ccccc1Cl (stereo unspecified) | 1.1 | 2.8 | 7 | . | -6 | -5 | -2.0 | 0.3 | -3 | -5
6 | COC(=O)c1sccc1NC(=O)c1ccc(C#N)cc1 | 5.2 | . | -13 | 6% | . | . | . | -0.6 | -4 | 0
7 | CCCCCCNCc1ccc(Br)cc1 | -0.8 | -11 | 9 | 22% | -9 | -14 | -0.8 | 0.6 | 3 | -17
8 | CCOCCn1c(-c2ccccc2)nc2ccccc21 | ? | -1.2 | 2 | . | 4 | -5 | 3.2 | 1.0 | -4 | -1
9 | O=C1C=C(c2cccc(O)c2)C[C@@H](c2ccc(F)cc2)C1 | . | -1.5 | . | . | -19 | -27 | -20 | -0.1 | 0 | .
10 | Cc1cc(C)cc(COc2ccc3c(C)c(CC(=O)O)c(=O)oc3c2C)c1 | -0.4 | 1.3 | -7 | 11% | -22 | -37 | -6.1 | 0.0 | 3 | 7
11 | O=C1CCCC(O)=C1C=Nc1ccc(O)cc1 | 3.6 | . | -13 | 35µM* | . | . | . | 0.1 | -1 | -1
12 | O=C(Nc1nnc(CCN2CCCCC2)s1)c1ccccc1 | -1.1 | -11 | -4 | 10% | 7 | -1 | -1.2 | 0.5 | -11 | 29
13 | CCC1CCCCN1S(=O)(=O)c1ccc(NC(=O)C2CCCO2)cc1 (stereo unspecified) | -0.8 | -5.1 | 4 | . | 1 | 2 | -1.1 | -0.3 | 0 | -2
14 | CCc1ccc(C)[n+](CC(=O)c2cccs2)c1 | -0.7 | 1.1 | -3 | 12% | 6 | 11 | -0.2 | 0.5 | 2 | -9
15 | O=C(COc1ccc(Cl)cc1Cl)Nc1ccccn1 | . | -57 | . | 0% | 3 | 9 | 2.9 | -8.4 | -15 | .
16 | CCCOc1ccc(/C=C2\SC(N)=NC2=O)cc1OC | -0.6 | 0.5 | 2 | -5% | -5 | -7 | -1.1 | 0.5 | 1 | -7
17 | CC1(CC(=O)N/N=C/c2ccc(-c3ccc(C(=O)O)cc3)o2)OCCO1 | 2.0 | -29 | -8 | 0% | 5 | 1 | 0.8 | -0.3 | -14 | ?
18 | C=CCn1c(SCc2nc3sc(C(=O)O)c(C)c3c(=O)[nH]2)nnc1-c1ccccc1 | -2.9 | . | -15 | . | . | . | . | 0.3 | 2 | -4
19 | COc1cc(-c2ccc3oc(-c4ccsc4)cc(=O)c3c2)cc(OC)c1OC | . | 3.5 | . | . | -14 | -20 | 11 | -0.2 | 4 | .
20 | O=S(=O)(NC12CC3CC(CC(C3)C1)C2)c1ccc(F)cc1 | ? | . | -4 | 1% | . | . | . | 1.2 | -6 | -36
21 | C[C@H]1CC[C@]2(O[C@@H](CCO)C[C@@H](O)[C@@H]2O)O1 | -1.4 | 2.0 | -8 | . | 10 | 11 | -0.7 | 0.6 | -6 | -7
22 | COc1ccccc1OCCn1c(=O)oc2ccc(C)cc21 | 0.5 | -0.6 | 11 | -5% | 2 | -3 | 0.6 | -0.3 | 0 | 8
23 | CN(Cc1ccccc1)c1ccc(N2C(=O)CCCC2=O)cc1[N+](=O)[O-] | 2.2 | . | 4 | -5% | . | . | . | -0.3 | . | -2
24 | CN(Cc1cccc(F)c1)C(=O)CNS(=O)(=O)c1ccc2ccccc2c1 | -4.3 | -1.6 | 8 | -5% | 6 | 7 | 3.2 | 0.2 | 1 | 9
25 | CC(=O)Nc1ccc(S(=O)(=O)N(CC(=O)NC2CC2)Cc2ccccc2)cc1 | . | -1.8 | . | . | 3 | 3 | -0.1 | 1.5 | -1 | .
26 | CC(C)NC(=O)C(OC(=O)c1ccccc1)C(OC(=O)c1ccccc1)C(=O)O (stereo unspecified) | -2.2 | . | -14 | 14% | . | . | . | 1.5 | -5 | 7
27 | COc1ccc(-c2nc(N)ncc2-c2csc(C)n2)c(O)c1OC | 0.2 | -2.0 | -8 | 7% | 8 | 0 | -0.6 | 0.0 | 4 | 14
28 | Cc1cc(C)c(CSc2ncnc3nc[nH]c23)c(C)c1 | -1.3 | -0.3 | -3 | -7% | -11 | -2 | -1.4 | -0.8 | -5 | 0
29 | O=C(O)c1ccc(NS(=O)(=O)/C=C/c2ccccc2)cc1 | 1.0 | . | -13 | -3% | . | . | . | -0.4 | 0 | 33
30 | Nc1nnc(SCC(=O)c2ccc3c(c2)NC(=O)CO3)s1 | ? | -1.2 | 2 | . | -15 | -14 | 2.1 | 0.7 | 3 | 2
31 | Cc1coc(C)c1C(=O)CC1(O)C(=O)N(Cc2ccccc2)c2ccccc21 (stereo unspecified) | -0.4 | . | -4 | 29% | . | . | . | -0.4 | 0 | -30
32 | CCC(=O)Nc1sc2c(c1C#N)CC(C)(CC)OC2 (stereo unspecified) | 4.5 | . | 0 | -6% | . | . | . | -0.7 | -2 | 12
33 | CC(C)(C)C(=O)Nc1nc(NC(=O)C(C)(C)C)nc(-c2ccccc2Cl)n1 | -0.1 | -1.6 | 14 | . | 10 | 6 | 0.3 | 1.1 | -4 | -3
34 | C/C(CC(=O)Nc1cccc(Cl)c1Cl)=N\NC(=O)c1ccccc1C | -1.5 | 0.9 | 13 | 6% | 15 | 7 | 4.4 | -0.5 | -1 | 6
35 | Cc1nnc(NC(=O)C(C)Oc2ccc3c(C)cc(=O)oc3c2)s1 (stereo unspecified) | 0.4 | . | -27 | -3% | . | . | . | -0.2 | -15 | -5
36 | CC(C)CCn1nnnc1C(c1ccccc1)N1CCC(C(N)=O)CC1 (stereo unspecified) | 4.6 | . | 5 | ? | . | . | . | 0.5 | 5 | -4
37 | Cn1nc(C(=O)NCc2cccs2)c2ccccc2c1=O | ? | -1.9 | 2 | 2% | -1 | -5 | -3.8 | 0.0 | -5 | ?
38 | CC1CCCC(NC(=O)CCS(=O)(=O)c2ccc3c(c2)NC(=O)CS3)C1C (stereo unspecified) | -3.2 | 1.4 | 0 | -4% | -5 | -2 | 1.2 | -0.4 | -5 | 1
39 | c1ccc(C(c2ccccc2)N2CCN(c3nc4ccccc4n4cnnc34)CC2)cc1 | 0.3 | . | . | 0% | . | . | . | -0.5 | 108* | 14
40 | CN(C)c1nc(OCCNC(=O)Nc2ccccc2)nc(N2CCOCC2)n1 | -6.7 | . | 2 | 9% | . | . | . | . | . | -1
41 | COc1ccc(-c2nsc(SCC(=O)NCC3CCCO3)n2)cc1 (stereo unspecified) | ? | -1.2 | -7 | -11% | -8 | -9 | 0.4 | -0.4 | -2 | 6
42 | COC(C(=O)Nc1cccc([N+](=O)[O-])c1)c1ccccc1 (stereo unspecified) | 0.9 | 1.6 | -12 | 1% | 4 | 4 | 9.1 | 0.6 | -4 | ?
43 | O=C(NN1C(=O)/C(=C/c2ccc(O)c(O)c2)SC1=S)c1ccccc1 | -7.7 | ? | -22 | . | -31* | -16* | 9.2* | -1.2 | -3 | -7
44 | Cc1noc(C)c1S(=O)(=O)Nc1ccc(C(=O)N2CCC(C)CC2)cc1 | . | . | -3 | . | . | . | . | 1.0 | -4 | 9
45 | Cc1ccc(-n2ncc3c2CCCC3NC(=O)c2csnn2)cc1C (stereo unspecified) | ? | 0.6 | -7 | -4% | -13 | -27 | -1.6 | ? | -4 | 11
46 | CCSC1=C(C#N)C(c2ccc(C)o2)CC(=O)N1 (stereo unspecified) | 5.1 | 11 | 4 | 30% | -7 | -6 | 2.9 | 0.0 | -19 | -20
47 | OCC[C@H]1C[C@H](O)[C@@H](O)[C@]2(CCCO2)O1 | 2.1 | -0.2 | -17 | . | 7 | 3 | -0.9 | -0.3 | 9 | -4
48 | O=C(c1ccc(Cl)cc1)N1CCN(c2ncccn2)CC1 | 3.2 | 0.0 | 13 | -6% | 4 | -2 | -1.9 | 0.7 | 4 | -4
49 | O=C(CC1SC(=Nc2ccc(O)cc2)NC1=O)Nc1ccccc1 (stereo unspecified) | ? | . | -3 | -1% | . | . | . | 0.1 | -7 | -16
50 | CN1CCc2c(sc3nc(SCC(=O)N4CCOCC4)n(-c4ccc(Cl)cc4)c(=O)c23)C1 | 2.0 | -8.6 | 54 | 7% | 8 | 10 | 1.4 | -1.8 | -3 | ?

Next records follow.
no. | smiles | RanGTP-Imp inh | MLL AF4-AF9 inh | T cruzi repl | Vif TR-FRET | Ecoli rRNA inh | Ecoli rRNA inh OD600 | Ecoli rRNA inh RFP | Bfl-1 A1 inh | Beta cell apopt | Calb FLC
51 | CC1CCN(CCCCOc2ccccc2F)CC1 | 2.3 | -1.7 | -19 | 2% | 13 | 11 | -0.1 | 0.4 | -8 | -2
52 | CCOC(=O)c1cc2sccc2n1CCCN1C(=O)c2ccccc2C1=O | 0.6 | 2.4 | 11 | -2% | -28* | -11* | 10* | -0.2 | -5 | 4
53 | CCCN(C(=O)c1ccco1)c1nnc(-c2cccc(C)c2)s1 | -1.9 | -1.4 | 30 | . | 8 | 4 | 0.6 | -0.7 | -17 | ?
54 | CC(=O)c1ccc(N2CCN(S(=O)(=O)c3c(C(=O)N4CCCCC4)c(C)n(C)c3C)CC2)cc1 | 4.8 | 6.3 | 4 | . | 2 | 0 | 0.3 | -0.3 | 0 | -15
55 | COc1ccccc1N1CCN(CC(=O)Nc2nc(C)c(C(=O)N(C)C)s2)CC1 | -2.4 | -3.0 | -11 | . | 11 | 7 | 0.9 | 0.6 | -3 | -4
56 | COc1ccc(N2CCN(CCC(=O)c3ccc4ccccc4c3)CC2)cc1 | 1.5 | 2.3 | 40 | -8% | 14 | 0 | 0.4 | -0.9 | -3 | 8
57 | Cc1cc(C(=O)C(C)OC(=O)C2=NNC(=O)CC2)c(C)n1-c1ccc(OC(F)F)cc1 (stereo unspecified) | 2.5 | . | 4 | 15% | . | . | . | 0.5 | 0 | -5
58 | CCCN1CCN(C(=O)CCCNC(=O)c2ccc(Cl)cc2)CC1 | 5.3 | -0.9 | -4 | . | 8 | 18 | -1.4 | 0.2 | -2 | -5
